BJeLR lethal: MLPCN primary cell-based screen for lethality selective to Ras in HRASV12 cells. BJeLR (HRASV12) viability, CellTiter-Glo ATP luminescence, 48 h; reference of the scale not given here. inhibition, % (concentration not given with the values). actives 0.17% (n = 300,000). AID 1554, 2009;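 active = replicate mean above 50%; inconclusive = above 50% but judged a plate artefact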;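 also: 50 nL library stock added to about 25 µL; numbers are from one replicate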
RN4220 kill: growth inhibition of S. aureus RN4220, primary screen, OD600 | inhibition, % (test concentration not listed) | actives 0.33% (n = 330,000) | 16 h | AID 1259311, 2017;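 active = z-score of -3 or lower and OD600 up to 0.18 on both plates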;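 also: plate controls were untreated cells for no effect and reference antibiotic for full effect; stock transfer was 100 nL into about 80 µL; one replicate is shown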
ugtP null kill: growth inhibition of ugtP-null S. aureus, primary screen, RN4220 ugtP deletion, OD600. growth inhibition, % (no concentration beside the values). 16 h; some inactives read as strong as hits. actives 0.54% (n = 330,000);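 active = z-score under -3 and OD600 up to 0.15 on both plates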;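 also: plate controls were untreated wells for no effect and antibiotic for full effect; wells of about 80 µL received 100 nL stock; the first replicate is given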
PrP 5UTR inh: inhibition of PrP 5' UTR reporter expression; cell-based PrP 5' UTR mRNA reporter, plate reader; inhibition, % (no concentration beside the values); actives 0.35% (n = 340,000); AID 488862, 2010;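 active = every replicate at 50% or more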;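 also: 0 = median of the neutral control wells; tested in H4 reporter cells; numbers are from one replicate; inactives centre near -14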
Bead autofluor: flagged as autofluorescent in microsphere protease counterscreen; AID 624483; fluorescence intensity (no concentration beside the values); actives 3.1% (n = 360,000); compound autofluorescence counterscreen, microsphere flow cytometry; stronger effect = higher value;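 active = at least 3 SD above the mean of all compounds, about 16000 in these data; inconclusive = too few beads counted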;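 also: 100 nL of 1 mM stock went into each well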
Mtb hypoxia rep: PubChem AID 1159583. M. tuberculosis hypoxia-regulated fluorescent reporter, fluorescence. actives 0.1% (n = 300,000). fluorescence inhibition, % (test concentration not listed);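 active = 35 to 45% if threefold the growth effect, above 45% if 1.5-fold the growth effect; inactive = the rest, general growth blockers included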;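 also: wells of about 50 µL received 100 nL stock; 0% = vehicle wells and 100% = reference inhibitor wells; whole bacteria with a GFP reporter of the hypoxia response; strong numbers were not always called active; many hits fall short of the cut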
Mtb hypoxia rep growth: second read-out of Mtb hypoxia rep, no call of its own (marks repeat the call); growth inhibition, %; measured here: M. tuberculosis growth (absorbance);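 0% = vehicle and 100% = reference antibiotic; read after six days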
An asterisk follows results filed as active; ? = inconclusive; / = no result given.

SMILES	BJeLR lethal	RN4220 kill	ugtP null kill	PrP 5UTR inh	Bead autofluor	Mtb hypoxia rep	Mtb hypoxia rep growth
Cc1ccc(C(=O)Nc2cc(C(C)C)c(O)c(C(C)C)c2)cc1	5	-1.3	0	8	10087	-1	-7
CC(=O)Nc1ccccc1C(=O)C(=O)Nc1cccc(C(=O)N2CC(C)CC(C)C2)c1 (stereo not given)	-17	4.8	4	-19	3799	11	2
COc1cc(SC)ccc1C(=O)NCc1ccc(C)cc1	3	5.4	12	-13	19956*	6	9
COc1ccccc1-n1c(-c2cccs2)nc2ccccc2c1=O	7	-2.9	7	-13	4332	3	12
CC(=O)C1=C(O)C(=O)N(c2ccc(C)cc2)C1c1ccc([N+](=O)[O-])cc1 (stereo not given)	8	0.1	10	-25	2681	0	6
CC1CCCCC1NC(=O)Cn1nnc2ccccc2c1=O (stereo not given)	2	6.5	3	12	4915	2	-4
Cc1ccc(/C=N/Nc2ccc(Cl)c(C(=O)O)c2)s1	0	/	/	-172	2131	/	/
O=C1CNC(=O)/C1=C/c1ccc(O)cc1	-6	5.0	14	-13	3441	16	5
COc1ccc(N(CC(=O)Nc2cc(C)ccc2C)S(=O)(=O)c2c(C)nn(C)c2C)cc1	1	-6.2	1	-6	4515	5	8
O=C(Cn1nnc(-c2ccccc2)n1)NNC(=O)c1ccc(Br)cc1	10	0.2	-6	-33	4682	1	9
O=C(c1ccc(F)cc1)N1CCOCC1	3	3.3	5	69*	4738	14	5
O=C(CCC(=O)c1ccc(Oc2ccccc2)cc1)Nc1cccc(Cl)c1	-1	2.5	3	-22	9658	12	0
Cc1ccc(OCCC(=O)O)cc1	0	1.3	4	16	4210	17	8
CC(=O)N1c2ccccc2NC2=C(C(=O)CCC2)C1c1ccc(F)cc1 (stereo not given)	-1	3.4	0	2	9893	-3	2
CN(c1ccccc1)S(=O)(=O)c1cccc(NC(=O)CSc2ncc(C(F)(F)F)cc2Cl)c1	-6	-9.6	-15	-4	3405	-1	-3
COc1ccc(/C=C/C(O)=C(\C#N)c2nnc(N3CCOCC3)n2-c2ccccc2)cc1OC	-14	-12	0	-32	5370	7	-5
Cc1cc(C)cc(NC(=O)C2CCCN2S(=O)(=O)c2ccc3c(c2)C(C)(C)C(=O)N3C)c1 (stereo not given)	-2	1.1	2	-28	6559	/	/
COC(=O)Oc1cncc(C(=O)O)c1	5	8.3	3	-8	2222	19	9
O=C1CCc2cc(S(=O)(=O)NC3CCCCC3)cc3c2N1CC3	7	0.6	-3	-1	5909	-5	11
Cc1ccc(S(=O)(=O)N2CCN(C(=O)Cc3ccsc3)CC2)c(C)c1	5	1.1	5	-7	6702	5	0
CC1=C(C(=O)Nc2ccccc2)C(c2cccnc2)n2nc(-c3cccnc3)nc2N1 (stereo not given)	7	3.9	-8	-11	22749*	5	8
COc1ccc(C2=Nn3c(nnc3-c3ccc(OC)cc3)SC2)cc1	-6	25	-24	38	11951	-22	-1
COc1cccc(Cl)c1NC(=O)N1CCc2c([nH]c3ccccc23)C1C(F)(F)F (stereo not given)	-4	1.5	-39	-16	5890	7	8
CC(=O)c1cccc(CN2CCC(C(=O)Nc3ccc(-c4cccc(C)c4)cc3)CC2)c1	0	3.1	-11	-12	6256	0	3
Cc1nnn(-c2nonc2N)c1C(=O)N/N=C/c1cccc2ccccc12	0	/	/	-18	2466	/	/

Brought forward from above: 6 compounds; new compounds follow.
SMILES	BJeLR lethal	RN4220 kill	ugtP null kill	PrP 5UTR inh	Bead autofluor	Mtb hypoxia rep	Mtb hypoxia rep growth
Cc1ccc(S(=O)(=O)N2CCN(C(=O)Cc3ccsc3)CC2)c(C)c1	5	1.1	5	-7	6702	5	0
CC1=C(C(=O)Nc2ccccc2)C(c2cccnc2)n2nc(-c3cccnc3)nc2N1 (stereo not given)	7	3.9	-8	-11	22749*	5	8
COc1ccc(C2=Nn3c(nnc3-c3ccc(OC)cc3)SC2)cc1	-6	25	-24	38	11951	-22	-1
COc1cccc(Cl)c1NC(=O)N1CCc2c([nH]c3ccccc23)C1C(F)(F)F (stereo not given)	-4	1.5	-39	-16	5890	7	8
CC(=O)c1cccc(CN2CCC(C(=O)Nc3ccc(-c4cccc(C)c4)cc3)CC2)c1	0	3.1	-11	-12	6256	0	3
Cc1nnn(-c2nonc2N)c1C(=O)N/N=C/c1cccc2ccccc12	0	/	/	-18	2466	/	/
C=CCn1c2ccccc2c2nnc(SC(CC)C(=O)Nc3sc4c(c3C#N)CCCC4)nc21 (stereo not given)	3	1.8	-9	-4	3204	0	5
O=C1CCN(Cc2ccccc2)C(=O)N1c1ccccc1	3	2.1	4	-9	6369	15	4
O=S(=O)(/C=C/c1ccccc1)Nc1ccc(N2CCOCC2)cc1	1	/	/	-23	2394	/	/
CCOC(=O)/C(C#N)=N\Nc1ccc(S(=O)(=O)Nc2nc(C)cc(C)n2)cc1	1	/	/	-13	1991	/	/
COc1ccccc1-c1nc(-c2ccccn2)no1	47	4.9	3	52	5728	4	-5
Cc1nc(-c2ccncc2)sc1C(=O)Nc1ccc(Br)cc1	0	3.3	-9	-16	4016	-3	5
CCCCn1c(=O)c(C(=O)NCc2ccccc2Cl)c(O)c2ccccc21	-14	3.7	54	-6	4243	5	-7
Cc1ccc(C2(C)NC(=O)N(CC(=O)Nc3ccccc3N3CCCCC3)C2=O)cc1 (stereo not given)	1	1.9	-12	-11	?	-5	-6
CCc1c(C)nc2nc(SCc3ccccc3Cl)[nH]n2c1=O	4	1.5	5	-22	3962	1	-16
N#Cc1c2n(cnc1=O)CCCCC2	6	-0.3	-2	-14	3726	/	/
CC1CN(c2nn3c(=O)c4ccccc4nc3c3ccccc23)CC(C)O1 (stereo not given)	11	6.6	-1	-5	2930	10	17
COc1ccc(Cn2ccc(=O)c(Cc3c(Cl)cccc3Cl)c2C)cc1	-4	98*	98*	-11	3362	3	11
CC(=O)NC1=NN(C(C)=O)C(C)(c2ccc(Cl)s2)S1 (stereo not given)	4	1.4	2	-2	4680	0	1
COc1cc(OC)cc(C(=O)NN2CCCCC2)c1	12	1.0	0	-30	25088*	-4	-4
CN(C(=O)CSc1ncnc2sc3c(c12)CCC3)C1CCS(=O)(=O)C1 (stereo not given)	/	1.8	1	-5	3522	32*	72*
Cc1nnc(SCCC(=O)Nc2ccc(F)cc2)s1	-4	-4.4	-2	-11	4431	/	/
CCCCCCc1cc2cc(S(=O)(=O)c3ccc(F)c(Cl)c3)c(=O)oc2cc1O	22	6.8	-4	-28	10653	0	2
O=C(CNC(=O)c1ccc(Br)o1)Nc1cccc(S(=O)(=O)N2CCOCC2)c1	7	2.2	5	-25	6727	3	10
O=C(Cc1ccc2c(c1)OCCO2)N1CCN(S(=O)(=O)c2cccc(C(F)(F)F)c2)CC1	3	1.1	-3	-11	2743	-9	3
CN(CC(=O)Nc1ccccc1C(F)(F)F)C(=O)Cn1c(=O)oc2ccccc21	-11	5.8	7	-21	?	4	7
Cc1nn(CC(=O)N2CCc3ccccc3C2)c(C)c1Cl	0	-3.8	-7	-2	5439	-9	5
N#Cc1ccccc1OCC(=O)OCC(=O)NCc1ccc2c(c1)OCO2	/	2.4	3	-1	2937	7	2
O=C(CSc1ncc(-c2ccccc2)n1CC1CCCO1)N1CCCCC1 (stereo not given)	-3	0.1	-4	-18	9116	5	4
Cc1ccc(C(=O)OCC(=O)NCc2ccc3c(c2)OCO3)cc1S(=O)(=O)N1CCOCC1	/	-0.4	-1	-20	8503	2	-1
COc1cc(Cl)c(S(=O)(=O)N2CCOCC2)cc1Cl	-14	1.6	-4	-11	9578	-3	2
(next part)
SMILES	BJeLR lethal	RN4220 kill	ugtP null kill	PrP 5UTR inh	Bead autofluor	Mtb hypoxia rep	Mtb hypoxia rep growth
Cc1cc(NN)nc(NS(=O)(=O)c2ccc(Cl)cc2)n1	-9	/	/	9	4034	/	/
O=C(NC1CCCc2c1cnn2-c1ccccc1F)c1ccccc1N1CCOCC1 (stereo not given)	-3	4.1	2	12	5571	1	16
O=C(CSc1nc2nn(-c3ccccc3)c(=O)c-2c2n1CCCCC2)c1ccc(O)c(O)c1	/	13	7	-23	3816	1	-2
Cc1ccc2c(c1)NCC(C(=O)NCc1ccccc1)O2 (stereo not given)	8	6.2	8	-20	5866	8	5
CCN(CC)S(=O)(=O)c1ccc(C(=O)OCC(=O)NCCN2C(=O)CSC2=O)cc1	1	1.4	5	0	4502	-1	-1
CCOC(=O)C1CCN(C(=O)c2ccco2)CC1	/	3.5	3	-25	2869	/	/
COC(=O)c1ccc(CSc2nc3ccc(S(=O)(=O)N4CCOCC4)cc3[nH]2)cc1	-11	5.2	-2	-25	2531	14	1
CCOc1ccc(NC(=O)CN(C)C(=O)c2n[nH]c(=O)c3ccccc23)cc1OCC	/	2.8	4	-19	5911	0	1
Cn1c(Cn2c(=O)sc3ccccc32)nnc1SCC(=O)N1CCCC1	-9	1.1	-6	-2	4765	/	/
COc1cc(-c2noc(C)c2C(=O)NCCc2c[nH]c3ccccc23)cc(OC)c1OC	-5	15	3	-4	3177	-2	12
O=C(NC1CCCCC1)C(=S)NCc1ccccc1	1	-0.6	4	-38	3919	-9	-7
O=C(c1cccc(S(=O)(=O)N2CCCC2)c1)N1CCCC(C(F)(F)F)C1 (stereo not given)	2	3.9	0	5	6744	-2	0
CC(C)C(=O)Nc1ccc2c(c1)C(=O)N(CCC(=O)O)C2=O	3	2.8	-1	-18	2497	4	5
COC(=O)c1ccc(Oc2ccc(C(C)(C)C)cc2)c([N+](=O)[O-])c1	-2	-15	95*	-6	?	3	7
NS(=O)(=O)c1ccc(NC(=S)NC(=O)c2cccc(Br)c2)cc1	-2	4.1	72	-19	4184	8	-4
CC1CCN(Cc2cc(=O)oc3cc4c(cc23)CCCC4)CC1	-8	3.8	8	-8	3768	4	-3
CS(=O)(=O)N1N=C(c2ccco2)CC1c1ccc(Cl)cc1 (stereo not given)	-5	3.0	0	-27	2293	0	-1
CCOC(=O)c1ccc(-c2ccc(C=NNC(=O)c3cncc(Br)c3)o2)cc1	/	1.1	-1	/	/	-2	-9
Cn1c(C(=O)NCCCN2CCc3ccccc3C2)cc2c(=O)n(C)c3ccccc3c21	2	0.6	0	-9	6342	/	/
O=C(NCc1ccccn1)c1ccc(CNS(=O)(=O)c2cccc(Cl)c2)cc1	-3	4.3	8	-19	2592	8	7
O=C1NC(=O)C(=Cc2coc3ccc(O)cc3c2=O)C(=O)N1	2	4.1	1	-8	3830	5	-2
CC(=NNC(=O)c1c(Cl)cnn1C)c1cccnc1	/	1.3	6	/	/	7	4
C(=NNc1nnnn1-c1ccccc1)c1ccncc1	/	0.9	8	/	/	7	6
Cc1ccccc1-c1nnc(CS(=O)(=O)c2ccccc2)o1	-7	1.5	2	-34	5796	1	-1
CC(C)(C)NS(=O)(=O)c1ccc(OCC(=O)Nc2ccc3c(c2)OCCO3)cc1	6	8.2	-3	-1	3958	11	4
Going on with the list.
SMILES	BJeLR lethal	RN4220 kill	ugtP null kill	PrP 5UTR inh	Bead autofluor	Mtb hypoxia rep	Mtb hypoxia rep growth
CN(C)S(=O)(=O)c1cccc2nsnc12	-9	8.3	21	6	8945	9	3
COc1cccc2sc(N(CCCN(C)C)C(=O)C(c3ccccc3)c3ccccc3)nc12	3	-2.4	-7	-69	4982	14	9
COc1ccccc1CNc1ccc(CNc2ncn[nH]2)cc1	-11	8.0	1	-1	3414	11	5
CC1CCCC(C)N1CC(O)COc1ccc(Cl)cc1 (stereo not given)	4	0.5	1	9	4602	/	/
NC(=O)NOCc1ncc(C(F)(F)F)cc1Cl	6	7.5	1	-13	2776	4	11
CS(=O)(=O)N(CC(=O)N1CCN(c2ccc(F)cc2)CC1)C1CCCCC1	5	3.9	-4	-6	6465	2	12
COC(=O)N1[C@H](Cc2ccccc2)C=C[C@]1(C)C(=O)O	-2	5.0	10	6	4030	6	4
CCCN(CC(=O)Nc1ccccc1OC)C(=O)c1cc(S(=O)(=O)NCc2ccccc2)ccc1C	-4	1.6	0	-20	6195	2	11
O=C(C[n+]1ccccc1)NN=Cc1ccc(F)cc1	/	4.0	-4	/	/	12	14
C(=Nn1cnnc1)c1ccc(N2CCOCC2)s1	/	3.4	-2	/	/	-9	2
O=S(=O)(c1ccc(OCC(O)CNCc2ccco2)c(Cl)c1)N1CCOCC1 (stereo not given)	-6	-4.3	1	-19	4754	/	/

Not a hit list; 3.9% or so of the library scored in one or more.
